From PubChem BioAssay
NPYLR7 agonist: agonists of mosquito NPYLR7 receptor, primary screen, cell-based, Aedes aegypti, calcium fluorescence, mosquito biting behavior; HEK293T NPYLR7/Galpha15, GCaMP6s calcium fluorescence; activation, % at 10 µM; 270,000 tested, 0.15% active; in the data active means activation above about 40%;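 further: 0% = vehicle and 100% = reference agonist at the receptor; some compounds past the cut are filed as inactive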
NPYLR7 agonist max-min: further read-out of NPYLR7 agonist, marked with its call; activation, %; measured here: Max-Min RFU normalised activation; some inactives read as strong as hits;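 span of the calcium signal over five minutes; 0% = vehicle and 100% = native peptide agonist; compound fluorescence can raise it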
* hit, by the source's call; & = joins results of further samples.

SMILES | NPYLR7 agonist | NPYLR7 agonist max-min
O=C(c1cc(=O)[nH]c2ccc(F)cc12)N1CC[C@@H](N2CCOCC2)[C@H](O)C1 | 2.0 | -3.2
O=C(CSc1ncnc2c1nnn2Cc1ccc(F)cc1)N1CCC(Cc2ccccc2)CC1 | -1.8 | 22.5
O=C(NCC(=O)N1CCC(n2c(=O)[nH]c3ccccc32)CC1)c1ccc(Cl)cc1 | -0.7 | -2.2
CC(CNC1CCN(S(C)(=O)=O)CC1)Oc1cccnc1 (stereo not drawn) | 5.5 | 2.1
COc1cc(OC)nc(C(NC(=O)C2CCN(Cc3cccc(Cl)c3)CC2)c2ccc(F)cc2)n1 (stereo not drawn) | 6.7 | 8.6
CCN(CC)C(=O)Oc1ccc2c(ccn2Cc2ccc(Cl)cc2)c1NS(=O)(=O)c1cc(F)ccc1C | -0.9 | 3.5
Cc1cc(=O)[nH]c(SCc2cn3cccnc3n2)n1 | -7.0 | -11.6
COc1ccc([C@@H]2[C@H](C(=O)O)c3ccccc3C(=O)N2c2ccc(C)cc2)cc1 | 4.5 | 1.8
COC(=O)c1ccc(CSc2nc(N)c(NC(=O)c3ccco3)c(=O)[nH]2)o1 | 2.0 | 1.1
CCCC(O)CN(Cc1ccccc1)Cc1cccc(OC)c1 (stereo not drawn) | 21.6 | 28.3
CCCNC(=O)c1csc(CN(CCC)C(=O)Nc2cc(OC)cc(OC)c2)n1 | 18.0 | 15.3
CCOc1nn(CC)cc1C(=O)Nc1ccc(F)cc1 | 5.3 | 9.8
O=C(NCCc1ccccc1)c1cc(-c2ccccc2F)nc2cc(-c3ccccc3)nn12 | 8.4 | 13.4
COCC(=O)N1CCC(C(=O)NC2CCC(N(Cc3cccc(C)c3)C(=O)c3ccc(F)cc3)CC2)CC1 (stereo not drawn) | 19.1 | 23.0
COc1cc(C)nc(N(C)S(=O)(=O)c2ccc(C)cc2)n1 | -0.2 | -3.5
Cc1cccc(-n2ncc3c(=O)n4c(nc32)SCC4CC(=O)Nc2cccc(C)n2)c1 (stereo not drawn) | -0.2 | 0.1
O=C(c1ccc(Nc2cccc(C(F)(F)F)c2)nc1)N1CCC2(CC1)OCCCO2 | -10.7 | -12.3
CCN(Cc1cccs1)C(=O)c1ccc(OC)c(S(=O)(=O)N2CCCC2)c1 | 0.9 | 1.0
COc1ccc(OCc2ccccn2)c(C=O)c1 | 8.4 | 2.1
Cc1cc(C)n(-c2cc(NCCNC(=O)c3ccccc3C(F)(F)F)nc(C)n2)n1 | -13.3 | -15.5
COCc1ccc(C(=O)NC(C)C23CC4CC(CC(O)(C4)C2)C3)o1 (stereo not drawn) | 0.4 | -1.6
CCOC(=O)c1cc(C)nc(N2CCCC(CCC(=O)Nc3ccc(OC)cc3C)C2)n1 (stereo not drawn) | 3.4 | 0.1
O=C(Cc1ccc(Br)cc1)NCCc1cccnc1 | -5.2 | -8.7
Cc1cc(C(=O)NC(C)(C)C)n2nc(-c3ccccc3)cc2n1 | 16.7 | 16.0
Cc1ccccc1N1CCN(C2CCCN(C(=O)c3n[nH]c4ccccc34)C2)CC1 (stereo not drawn) | -3.3 | -4.5
C=CCNS(=O)(=O)c1nc2nc(C)cc(C)n2n1 | 16.8 | 7.3
CNC(=O)Cn1c(CO)cnc1SCc1ccccc1 | 4.1 | 3.8
CN(CC(=O)N1CCCC1C(=O)O)C(=O)OC(C)(C)C (stereo not drawn) | 6.9 | 4.2
CCN(CC)C(=O)C1CCCN(CC(=O)Nc2cnccn2)C1 (stereo not drawn) | 4.6 | 16.1
CCOC(=O)c1cc(-c2ccccc2C)n(-c2ccc(C(=O)NC3CCCc4ccccc43)cc2)n1 (stereo not drawn) | 4.6 | 0.8
CC(=O)NC1CCC(NC(=O)[C@H]2CCCN2C(=O)CCc2ccccc2)CC1 (stereo partly drawn) | 26.5 | 27.0
OCC1(CCc2ccccc2)CCCN(c2ncccc2F)C1 (stereo not drawn) | 27.7 | 22.5
O=c1c2ccccc2nnn1Cc1nc(CCc2ccccc2)n[nH]1 | -4.7 | -7.2
CCOP(=O)(Cc1ccc(NC(=O)N[C@@H](C)c2ccccc2)cc1)OCC | -7.2 | -12.4
CC(C)Cn1c(CN(Cc2ccccc2)CC2CC2)cnc1S(C)(=O)=O | 6.2 | 5.8
COC(=O)C1=C(C)NC2=C(C(=O)CC(c3ccc(Cl)cc3)C2)C1c1ccc(N(C)C)cc1 (stereo not drawn) | 0.1 | -3.9
Cc1nc(NCCNC(=O)c2ccc(F)cc2Cl)cc(-n2ccnc2C)n1 | -17.3 | -21.5
Cc1nnc(CN(C)Cc2ccc(C(=O)Nc3ccc(F)cc3F)cc2)o1 | 1.3 | -0.6
Cc1c(NC(=O)c2csc(-c3ccoc3)n2)sc2c1CCCC2 | -0.9 | -1.9
FC(F)(F)c1nc(=S)c2ccccc2[nH]1 | 4.3 | 14.4
Cc1ccc2nc(Nc3nc(C)c(C)c(=O)[nH]3)nc(C)c2c1 | 0.0 | -3.7
COCCNCC(=O)N(Cc1ccccc1)Cc1ccco1 | -0.7 | 9.1
O=C(/C=C/c1ccccc1)N1CCN(S(=O)(=O)N2CCOCC2)CC1 | -1.2 | -2.2
COc1cc(-c2cc(C(F)(F)F)n3ncc(C(=O)Nc4cccc(Cl)c4C)c3n2)cc(OC)c1OC | 4.1 | 5.0
O=C(NCc1cccnc1Oc1ccccc1F)c1ccc2n[nH]nc2c1 | 7.7 | 8.2
O=C(CSc1nc2[nH]ncc2c(=O)[nH]1)N1CCN(c2ccccc2)CC1 | 1.3 | 1.8
Cc1cccc(C(=O)N2CCC(n3nccc3NC(=O)CCOc3ccccc3)CC2)n1 | 15.2 | 2.8
CCc1nc(-c2ccccc2)nc(N2CCN(C(=O)C3CCC3)CC2)c1Cc1ccc(F)cc1 | 5.5 | 10.8
COc1ccc2cc(C(=O)C3CCCN(CCc4cn[nH]c4)C3)ccc2c1 (stereo not drawn) | 10.4 | 1.0
CCOC(=O)c1ccc2c(c1)nc(SCc1ccc(/C=C/c3ccccc3)cc1)n2Cc1ccco1 | 11.0 | 11.7
C#CCNC(=O)C(CC(C)C)N1CC2=C(C1=O)C(c1ccc(C)cc1C)NC(=O)N2CC (stereo not drawn) | -2.6 | -0.2
O=C(Nc1ccc(-c2nc3ccccc3o2)cc1)c1ccc(Cl)cc1Cl | -15.4 | -15.2
COc1ccc2c(c1)CN(Cc1ccco1)C(=O)CCN2C(=O)c1ccno1 | -1.2 | 1.7
Cc1nc(C(=O)NCc2cccs2)ccc1C#N | 4.8 | 4.0
CCC(C)N(Cc1ccc(OS(=O)(=O)c2cccc(C(F)(F)F)c2)cc1)C(=O)Nc1cccc(F)c1 (stereo not drawn) | 8.2 | 16.6
Cc1cccc(S(=O)(=O)NC(=O)C2(C)CCN2C(=O)c2ccc(C(C)(C)C)cc2)c1 (stereo not drawn) | -0.2 | 0.6
CCCCNC(=O)N1CCCN(c2nc(Cc3ccc(C)cc3)nc3onc(-c4cccnc4)c23)CC1 | 12.9 | 3.0
Cc1cn2c3c(=O)n(Cc4ccc(F)cc4)c(=O)n(C)c3nc2n1CCCO | -1.5 | 10.4
CC(C)(C)c1ccc(S(=O)(=O)NC(=O)C2(C)CCN2C(=O)CCC2CCCC2)cc1 (stereo not drawn) | 4.0 | 0.8
COC(=O)C(=O)N1CCC(Cc2ccc(NC(C)=O)cc2)CC1 | 1.1 | 7.9

(further entries)
SMILES | NPYLR7 agonist | NPYLR7 agonist max-min
CNc1nc2c(=O)[nH]nc(-c3ccccc3)c2s1 | -3.4 | -4.1
CC(C#N)CN(C)C(=O)c1c2c(nc3ccccc13)CCC(C(C)(C)C)C2 (stereo not drawn) | 3.5 | 1.1
COc1ccc(CN(Cc2cccn2Cc2cccc(OC)c2)CC(C)C)cc1 | -3.0 | -1.0
NC(N)=NCC1COC2(CCCCC2)O1 (stereo not drawn) | 7.6&-1.0 | 6.3&-3.1
COCCCN(Cc1ccc(OS(C)(=O)=O)cc1)C(=O)c1ccc(OC)cc1 | -0.5 | 2.0
COC(=O)c1c(NC(=O)Cn2nc([N+](=O)[O-])c(Br)c2C)sc2c1CCCC2 | -2.5 | -3.4
CCc1nnc(CN(C)Cc2cccc(C(=O)Nc3ccnn3C)c2)o1 | 0.7 | -7.2
CC(=O)Nc1ccc(SCCCC(=O)N2CCN(c3ccccc3F)CC2)nn1 | -0.9 | 0.2
COc1nccnc1N1CCC(O)(CO)CC1 | 1.7 | -8.2
CCOC(=O)[C@@H]1[C@@H](OC)C(=O)N(C)C12CCN(C(=O)c1cc(C)oc1C)CC2 | 29.9 | 29.6
CC(C)NC(=O)N(Cc1ccco1)Cc1cc(NC(=O)c2ccco2)ccc1N(C)C | 27.0 | 37.3
CCSc1nc(CC(=O)NCCc2sccc2C)cs1 | 12.1 | -1.4
Cc1cc(=O)[nH]c(SC(C)C(=O)N2CCn3cncc3C2)n1 (stereo not drawn) | 15.7 | 6.7
COCCNC(=O)[C@@]1(OCc2ccccc2C)CC(OCc2cccc(OC(F)(F)F)c2)[C@H](O)[C@H](O)C1 (stereo partly drawn) | 7.7 | 18.4
CC(=O)NC(C)c1ccc(S(=O)(=O)NC2CCc3ccccc3C2)s1 (stereo not drawn) | 0.8 | -5.1
CCc1cc(=O)[nH]c(-n2nc(C)cc2NC(=O)c2ccccc2SC)n1 | -5.1 | -3.2
COc1ccc(-c2nc(CC(=O)N3CCN(C(=O)C(C)C)CC3)cs2)cc1OC | 15.3 | 5.7
CCc1ccc(S(=O)(=O)N2CCN(c3ncnc4c3nnn4-c3cccc(OC)c3)CC2)s1 | -6.4 | -17.8
C=COC(=O)CSc1nc(C)cc(C)c1C#N | -8.5 | -11.8
COc1ccc(S(=O)(=O)N(CC(=O)NCCSCc2ccccc2)c2ccc(C)cc2)cc1OC | -15.2 | -4.4
NC1=NC(=O)C(Cc2ccc(Cl)c(Cl)c2)S1 (stereo not drawn) | -3.4 | -5.2
COCCN1C(=O)C=C(Nc2ccc(S(N)(=O)=O)cc2)C1=O | 4.8 | 4.1
COc1c(CNC2CCCCNC2=O)c(C)nn1C (stereo not drawn) | 14.1 | 13.5
CCCCSc1nc2c(c(=O)n1C)SC(C)C2 (stereo not drawn) | 0.1 | -2.3

Four structures already listed, sorted by heavy-atom count, low to high.
SMILES | NPYLR7 agonist | NPYLR7 agonist max-min
C=COC(=O)CSc1nc(C)cc(C)c1C#N | -8.5 | -11.8
CC(=O)NC(C)c1ccc(S(=O)(=O)NC2CCc3ccccc3C2)s1 (stereo not drawn) | 0.8 | -5.1
CCc1ccc(S(=O)(=O)N2CCN(c3ncnc4c3nnn4-c3cccc(OC)c3)CC2)s1 | -6.4 | -17.8
COc1ccc(S(=O)(=O)N(CC(=O)NCCSCc2ccccc2)c2ccc(C)cc2)cc1OC | -15.2 | -4.4

Next entries follow:
SMILES | NPYLR7 agonist | NPYLR7 agonist max-min
CC(=O)c1[nH]c(C)c(C(=O)NCC2CCCO2)c1C (stereo not drawn) | -0.6 | -4.5
Cc1ccc(NC(=O)CSc2nccn2C)cc1S(=O)(=O)N1CCCCC1 | -1.4 | -2.0
COCC(=O)N(Cc1cc(NC(=O)C2CCC2)ccc1N(C)C)C(C)c1ccccc1 (stereo not drawn) | 20.5 | 16.8
COCC(=O)N(Cc1cc(NC(=O)C2CCCC2)ccc1N(C)C)C(C)c1ccccc1 (stereo not drawn) | 2.8 | 30.8
COc1ccc(NC(=O)CN2CCN(Cc3ccc4c(c3)CCO4)CC2)cc1OC | 0.0 | 13.8
CCOCCn1c(=NC(=O)CCCS(=O)(=O)c2ccc(OC)cc2)sc2cc(F)cc(F)c21 | 10.5 | 8.6
Cc1c(NC(=O)c2ccccc2I)cccc1-c1nc2cc(Cl)ccc2o1 | 7.9 | 3.4
CC(=O)N1CCN(C(C)C(=O)NCc2ccc(Cl)cc2)CC1 (stereo not drawn) | 9.1 | 7.4
CCOc1ccccc1N1CCN(Cc2cc3n(n2)CCCNC3)CC1 | -2.3 | -6.2
C=CCNC(=S)Nc1nccs1 | -10.4 | -17.0
CCN(CC(=O)N(C)C)C(=O)c1ccccc1S(=O)(=O)C(C)C | 5.3 | 4.8
O=C1CCCCCC1CN1CCCCC1 (stereo not drawn) | 3.5 | 1.1
C#CC1(OCC(O)CN2CCCCCC2)CCCCC1 (stereo not drawn) | 0.1 | 22.5
Cc1nc(N=C(NC(=O)c2ccccc2)Nc2ccccc2)[nH]c(=O)c1C | 2.0 | -2.3
c1cc(-c2ccc(-c3ncnc4ccsc34)cc2)[nH]n1 | 3.6 | 2.0
CNc1cccc(-c2ccccc2NS(C)(=O)=O)n1 | 3.8 | 1.6
Cn1c(=O)c2c(ncn2CC(=O)NCC2CCCO2)n(C)c1=O (stereo not drawn) | 6.0 | 6.5
COc1cc(OC)cc(C2SCCN2C(=O)Nc2ccc(Cl)cc2)c1 (stereo not drawn) | 9.0 | 7.8
CCCNC(=O)CN1CCN(C(=O)NCC2CC2)CC1 | 11.0 | 7.4
Cc1c(C)n2c3c(=O)n(CCc4ccccc4)c(=O)n(C)c3nc2n1CCc1ccccc1 | 2.6 | 1.8
COCCNc1nc(-c2cccs2)nc2ccccc12 | 7.8 | 13.6
CCc1cccc(N2C(=O)NC3CC2(C)Oc2ccc(C(=O)OC)cc23)c1 (stereo not drawn) | 1.1 | 3.2
CCc1ccccc1NC(=O)c1cccc(NC(=O)C2C=CCN2)c1 (stereo not drawn) | 1.6 | 0.7
CNC(=O)CSc1nnc(-c2ccccc2)c2sc(C)nc12 | 0.7 | -1.4
CC(C)C1=NOC(C(=O)N(Cc2cnn(C)c2)C(C)C)C1 (stereo not drawn) | 4.6 | 7.9
Cc1nn(C)cc1-c1ccnc(N(C)Cc2cnn(-c3ccccc3)c2)n1 | 3.2 | 2.4
CN1CCN(Cn2c(O)c(N=NC(=O)c3ccccc3Cl)c3ccccc32)CC1 | 19.5 | 9.2
CCCSc1ncccc1C(=O)NC1CCCC(C)C1 (stereo not drawn) | -2.4 | -10.9
O=C(NCCn1ncc2c(N3CCCC3)ncnc21)C1CC(=O)N(c2ccccc2)C1 (stereo not drawn) | 6.5 | 3.4
Cc1ccc2oc(CN(C(=O)c3ccc(-c4ccccc4)cc3)C(C)C)nc2c1 | 1.2 | 1.1

A portion of the library. The share of hits here may be higher or lower than overall.
